# 2A Renilla = FMDV 2A StopGo reporter, Renilla signal | HEK cells with a luciferase reporter of 2A StopGo recoding | Potency, µM (highest dose often 57.5 µM), without a hit: at the top dose signal change, negative = less light | 120,000 compounds, 0.32% hits | AID 1745857; active means well fitted falling curve with a large enough effect; inconclusive means small, poorly fitted or top-dose-only effect; inactive means no such curve, though single readings can be large or run the other way; also: nearly all actives have a fitted effect of over 55% in size; overnight with compound
# 2A firefly = lowers the firefly signal of an FMDV 2A StopGo reporter | AID 1745856 | Potency, µM (series often up to 57.5 µM), for the others: at the highest dose signal change, negative = less light | HEK cells with a luciferase reporter of 2A StopGo recoding | 120,000 compounds, 0.23% hits; active = well fitted falling curve with a large enough effect; inconclusive = small, poorly fitted or top-dose-only effect; inactive = no such curve, though single readings can be large or run the other way; also: nearly all actives have a fitted effect of over 60% in size; overnight with compound
# Active calls of the source: *; ? = inconclusive; & = joins results of further samples; [ ] = another dose, or the depositor's remark. % is scaled to controls: 0 for no effect and ±100 for the full control effect; potency is read from the fitted curve at half-maximal effect.
SMILES,2A Renilla,2A firefly
COc1cccc(-c2c(NC(=O)c3ccccc3)oc3ccccc3c2=O)c1,8%,0%
CC(Sc1ccc2c(c1)CCC2)C(=O)NC1CC1 (stereo unspecified),7%,7%
COC(=O)c1[nH]c2ccc(F)cc2c1NC(C)=O,-18%,-14%
CCOC(=O)N1CCc2c(sc(NCc3cccs3)c2C(=O)Nc2ccc(OC)cc2OC)C1,75%[activator],?
Cc1ccc2c(CNCCc3ccc(Cl)cc3)c(C(=O)O)n(Cc3ccc(F)cc3)c2c1,4%,15%
Cc1ccc(-c2cc(C(=O)NCc3ccccc3)[nH]n2)c(O)c1C,96%[activator],27%
CCOP(=O)(OCC)c1nc(-c2ccc(C)cc2)oc1N(C)C,8%,10%
C/C(=N\NC(=O)C1CC1c1ccccc1)c1ccc2c3c(cccc13)CC2 (stereo unspecified),12%,0%
CCCCn1c(N)c(N(C)C(=O)c2cc(-c3ccncc3)nc3ccccc23)c(=O)[nH]c1=O,-10%,-6%
CCOC(=O)C1CCCN(C(=O)Cn2ncc3c4ccccc4n(C)c3c2=O)C1 (stereo unspecified),-13%,2%
O=[N+]([O-])/C=C/c1ccc(Cl)cc1,12%,0%
CCN(C(=O)CCc1nc(-c2ccc(C)cc2)no1)c1cccc(Cl)c1,15%,10%
CCOC(=O)c1c(S(=O)(=O)N2CCCC(C(=O)Nc3ccc(C)cn3)C2)c(C)n(C)c1C (stereo unspecified),-5%,-16%
CCC(C)NC(=O)c1cc(-c2ccccc2)nc2ccccc12 (stereo unspecified),-2%,-4%
Cn1ncc2c(N3CCN(c4ccc(F)cc4)CC3)ncnc21,?,-28%
Cc1cc(-c2csc(N3CCN(C)CC3)n2)c(C)n1NC(=O)c1nn(C)c(=O)c2ccccc12,-12%,5%
O=C(NC1CCCCC1)c1ccc2c(Cl)c3c(nc2c1)CCC3,61%[activator],113%[activator]
Cn1cc(S(=O)(=O)N2CCCC2)cc1C(=O)Nc1ccc(C(F)(F)F)cc1,-17%,-7%
COc1cc2c(cc1OC)-c1c(c(C(=O)N3CCC(C(N)=O)CC3)nn1-c1ccc(Cl)cc1)C2,59%[activator],40%[activator]
COC(=O)c1c(C)cccc1NC(=O)c1nn(C)c(=O)c2ccccc12,-1%,16%
Cc1ccc2oc(-c3ccc(C)c(NC(=O)c4ccc(N5CCC(C)CC5)c([N+](=O)[O-])c4)c3)nc2c1,-10%,12%
CCS(=O)(=O)c1ccc(O)c(Nc2cc(C)nc(SC)n2)c1,-14%,-25%
CCCOc1ccccc1NC(=O)CCc1c(C)c2ccc(OC)cc2oc1=O,27%,6%
CCCN(CCC)C(=O)Cn1c(=O)n(-c2ccc(Cl)cc2)c(=O)c2c3c(sc21)CCCCC3,-2%,-8%
O=C(O)c1cc(Cl)cc(Cl)c1I,-2%,5%

# Next structures:
SMILES,2A Renilla,2A firefly
Cc1c(C(=O)Nc2ccc(C(C)C)cc2)sc2nc[nH]c(=O)c12,1%,97%[activator]
O=C(CCS(=O)(=O)c1cc(Br)cc2c1N(C(=O)C1CC1)CC2)N1CCN(c2cccc(C(F)(F)F)c2)CC1,-10%,16%
COc1ccc(CNC(=O)c2cccc(C(F)(F)F)c2)cc1C(=O)O,48%[activator],58%[activator]
COc1ccccc1N1CCN(S(=O)(=O)CCNC(=O)COc2ccc(C(C)C)cc2)CC1,?,?
CC(C)(C)c1ccc(C2NC(=O)c3n[nH]c(-c4cccs4)c32)cc1 (stereo unspecified),-8%,-9%
Cc1cccc(NC(=O)c2ccc3nc(C)c(C)nc3c2)n1,0%,135%[activator]
O=C(CCc1ncc(-c2c(F)cccc2F)o1)N1CCN(c2ccccc2F)CC1,10%,17%
Clc1ccc(CNc2ncnc3onc(-c4ccc(Cl)cc4)c23)cc1,-4%,0%
CCOC(=O)C1CCN(Cc2cc(=O)oc3ccc(C)cc23)CC1,1%,8%
O=C(NCCc1nc2ccccc2n1CCC1CCCCC1)c1ccco1,-13%,-22%
COC(=O)C1CCN(Cc2cc(=O)oc3cc(C)ccc23)CC1,4%,60%[activator]
Cc1ccc(S(=O)(=O)Nc2ccc(Cl)c(C(=O)O)c2)cc1,-3%,-2%
CC1CCCN(CC(=O)N(C)CC(=O)Nc2ccc(Cl)c(C(F)(F)F)c2)C1 (stereo unspecified),-15%,-5%
CC(C(=O)NCc1cccs1)N(C)Cc1ccc(C(C)(C)C)cc1 (stereo unspecified),-7%,-12%
Cc1nn(CCc2nc(-c3ccc4ccccc4c3)cs2)c2[nH]c(=O)cc(C(F)(F)F)c12,2%,20%
O=C(Nc1ccc(N2CCC(N3CCCCC3)CC2)c(C(=O)O)c1)c1ccc(Br)cc1,-4%,20%
CCCCCOc1ccc(C(C2C(=O)CC(c3ccccc3)CC2=O)C2C(=O)CC(c3ccccc3)CC2=O)cc1 (stereo unspecified),-2%,23%
COc1ccc(-c2cn3nc(N4CCC(C(=O)N5CCN(C)CC5)CC4)sc3n2)cc1,-36%,71%[activator]
CCOc1ccc(NC(=O)c2cn(C)c(=O)c3cc(OC)c(OC)cc23)cc1,-4%,0%
CC(C)Cn1c(CN2CCN(c3cccc(Cl)c3)CC2)nc2c1c(=O)[nH]c(=O)n2C,8%&48%,12%&21%
CCOC(=O)c1ccc(Oc2c(C)oc3cc(OCC(=O)c4ccc(OC)cc4)ccc3c2=O)cc1,-3%,0%
CN(CCO)C(=O)c1ccc(N)cc1,4%,22%
O=C(NCC(c1cccnc1)N1CCc2ccccc2C1)c1ccc(F)c(F)c1 (stereo unspecified),-20%,-21%
Cc1ccccc1-c1noc(CN(C)C(C)c2cc3ccccc3o2)n1 (stereo unspecified),-11%,-9%
Cc1nc(-c2ccc(Cl)cc2Cl)sc1C(=O)N1CCC(C(=O)O)CC1,8%,12%

# Profiles, looked up by structure.
# Cc1nn(CCc2nc(-c3ccc4ccccc4c3)cs2)c2[nH]c(=O)cc(C(F)(F)F)c12 in the list: 2A Renilla: 2%; 2A firefly: 20%
# CC(C)(C)c1ccc(C2NC(=O)c3n[nH]c(-c4cccs4)c32)cc1 (stereo unspecified) in the list: 2A Renilla: -8%; 2A firefly: -9%
# CC1CCCN(CC(=O)N(C)CC(=O)Nc2ccc(Cl)c(C(F)(F)F)c2)C1 (stereo unspecified) in the list: 2A Renilla: -15%; 2A firefly: -5%

# Reformatted with values under each structure: entries from further up.
# Sequence of screens – 2A Renilla | 2A firefly
> CC(C)(C)c1ccc(C2NC(=O)c3n[nH]c(-c4cccs4)c32)cc1 (stereo unspecified)
  -8% | -9%
> Cc1cccc(NC(=O)c2ccc3nc(C)c(C)nc3c2)n1
  0% | 135%[activator]

# The list goes on:
SMILES,2A Renilla,2A firefly
COc1ccc(Nc2nc(NCCO)nc3c2cnn3-c2ccccc2)cc1,31%[activator],56%[activator]
CCOC(=O)c1cnc2ccc(Cl)cc2c1Nc1cc(C)ccc1OC,16%,11%
CC(C)CN(CC(=O)NC(C)(C#N)C1CC1)C1CC1 (stereo unspecified),-15%,0%
O=C(NC(C(=O)O)c1ccccc1)c1ccco1 (stereo unspecified),19%,27%
CCCS(=O)(=O)N1CC(=O)N(c2cc(C)ccc2C)C(C)(C(=O)NC2CCCCCC2)C1 (stereo unspecified),18%,4%
COc1ccc(C(=O)CCN(C)C)cc1,4%,9%
CCN(CC)C(=O)CSc1nc(-c2ccc(C)cc2)nc2c1Cc1c(CO)cnc(C)c1O2,-10%,-21%
CC(=O)c1c(C)oc2c1cc(NS(=O)(=O)c1ccc(Cl)c(C)c1)c1ccccc12,-11%,-14%
COc1ccc(OC)c(C2CC(=O)N(Cc3ccc(C)cc3)c3c2c(C)nn3-c2nc(C)cc(C)n2)c1 (stereo unspecified),-4%,2%
CCOCCCNC(=O)/C(C#N)=C\c1cccc(F)c1,-10%[1.06 µM],1%
O=C1CCC(=O)C1,3%,-1%
CCCC(=O)Nc1ccc2c(c1)nc1n2CCOC1,-4%,40%[activator]
O=C(O)c1ccc(CNCc2ccco2)cc1,6%,3%
CCOC(=O)CNC(c1ccccc1)c1cc(Br)ccc1NC(=O)c1ccc(Cl)cc1 (stereo unspecified),16%,-75%
Cc1cccc(-c2nc3cc(NC(=O)CC(C)C)ccc3o2)c1,7%,120%[activator]
CCCNC(=O)c1ccc(-n2c(-c3ccccc3)cc3c2CCCCC3)cc1,33%[activator],39%[activator]
CCC(C)NC/C=C/c1ccccc1 (stereo unspecified),23%,0%
COc1ccc(OCC(=O)OCc2cc(=O)n3nc(C4CCCCC4)sc3n2)cc1,-16%,-5%
COc1ccc(CNC(=O)c2ccc(NC(=O)N3CCSc4ccccc43)cc2)cc1,-4%,0%
CCC1CCc2c(sc(NC(=O)C3CC3)c2C#N)C1 (stereo unspecified),23%,102%[activator]
COc1ccc(-n2c(=O)c3c4c(sc3n(CC(=O)N3CCCCC3C)c2=O)CCC4)c(OC)c1 (stereo unspecified),2%,-7%
CCN(CC)CCCn1c(-c2ccc(COc3cc(C)ccc3Cl)cc2)n[nH]c1=S,-13%,-14%
COc1ccc(OC)c(NC(=O)CN2CCCN(Cc3ccccc3Cl)S2(=O)=O)c1,46%[activator],3%
Nc1nccnc1C(=O)NCCNC(=O)c1ccco1,-2%,5%
Cc1cn2c(-c3ccccc3F)nc(=S)nc2s1,0%[1.06 µM],188%[activator]

# 3 entries drawn at random from the list so far, as already listed:
SMILES,2A Renilla,2A firefly
CCOCCCNC(=O)/C(C#N)=C\c1cccc(F)c1,-10%[1.06 µM],1%
O=C(NC(C(=O)O)c1ccccc1)c1ccco1 (stereo unspecified),19%,27%
COc1ccc(OC)c(NC(=O)CN2CCCN(Cc3ccccc3Cl)S2(=O)=O)c1,46%[activator],3%

# The listing continues:
SMILES,2A Renilla,2A firefly
CCOC(=O)COc1ccc2c(CC)cc(=O)oc2c1C,-6%,12%
Cc1ccc(NC(=O)C(C)OC(=O)c2csc(NCc3ccccc3)n2)cc1 (stereo unspecified),-10%,2%
C/C(=N\NC(=O)C1CC1c1ccc(C(C)(C)C)cc1)c1ccc(F)cc1 (stereo unspecified),2%,0%
COc1ccc(OC)c(/C=C(\C#N)C(=O)Nc2cc(C(F)(F)F)ccc2Cl)c1,4%,-2%
COC(=O)C1=C(C)N=C2SCCC(=O)N2C1c1ccc(OCc2ccccc2)c(OC)c1 (stereo unspecified),6%,-16%
Cc1nc2ncnn2c(N2CCCCC2)c1Cc1ccccc1,0%,2%
Cc1ccc(NC(=O)Cn2nnc(-c3nc(-c4ccc(Cl)cc4)no3)c2N)cc1C,23%,28%
COc1ccc(CNC(=O)CCNS(=O)(=O)c2ccc3c(c2)oc(=O)n3C)cc1,14%,11%
CN(C(=O)c1cc2cc(Br)ccc2oc1=O)C1CCCCC1,0%,3%
CCCC(=O)Nc1ccc(CNCc2cccnc2)cc1,3%,19%
O=C(O)c1ccc(-c2cccc3ccccc23)s1,26%,153%[activator]
CN(C)S(=O)(=O)N(C)CC1COc2ccccc2O1 (stereo unspecified),-3%,5%
Cc1ccc(N2CCN(C(=O)Nc3cn(CC(C)C)c(=O)c4ccccc34)CC2)c(C)c1,-8%,-14%
COc1cc(NS(=O)(=O)c2cc(C(=O)N3CCCCCC3)cs2)cc(OC)c1,94%[activator],-16%
Cc1nn(-c2ncnc3nc[nH]c23)c2c1C(c1ccc(F)c(F)c1)CC(=O)N2 (stereo unspecified),1%,12%
COc1ccc(-c2cc(C(=O)O)c3cc(Br)ccc3n2)cc1OC,?,46%[activator]
O=C(CCn1cnc2sc3c(c2c1=O)CCCC3)NC1CCS(=O)(=O)C1 (stereo unspecified),-7%,-8%
CCc1nn(CC(=O)NCCCOC)c(=O)c2cc3ccccc3n12,-3%,-10%
O=C(C1CCCCC1)N(Cc1cccnc1)c1nc2ccc(Cl)cc2s1,-1%&-11%,17%&-17%
CCN1C(C(=O)c2ccccc2)=C(OC(=O)c2ccccc2OC)c2ccccc2S1(=O)=O,?,?
COc1ccc(C(C)=O)cc1COC(=O)COc1cccc(Br)c1,-8%,-11%
Cc1ccn2cc(-c3cc4cc(Cl)ccc4oc3=O)nc2c1,7%,48%[activator]
CCN1CCc2c(sc(NC(=O)Nc3ccc(Cl)cc3)c2C(N)=O)C1,5%,0%
COc1cc(NC(=O)c2c(C)oc3c2C2=NCCN2C=N3)cc(OC)c1OC,0%,1%
COc1ccc(C(=O)N2CCN(CCc3ccccn3)CC2)cc1,3%,0%
CC1(C)C2CCC1(C)C(NC(=O)CCNC(=O)C1CCCC1)C2 (stereo unspecified),5%,-10%
O=C(CN1C(=O)CCn2nc(-c3ccccc3)cc21)NCc1ccc(F)cc1,-8%,-17%
Cc1ccc2c(C)nc(Nc3nc(C)cc(=O)[nH]3)nc2c1,50%[activator],0%
O=C1CSc2ccc(C(=O)Nc3ccc(OC(F)F)cc3)cc2N1,-26%,37%[activator]
CC1(C)CC(NC(=O)c2ccccc2OCc2ccc(Cl)cc2)CC(C)(C)N1,-10%,?

# Some of these compounds in order of length of the SMILES, lowest first.
SMILES,2A Renilla,2A firefly
O=C(O)c1ccc(-c2cccc3ccccc23)s1,26%,153%[activator]
COc1cc(NC(=O)c2c(C)oc3c2C2=NCCN2C=N3)cc(OC)c1OC,0%,1%
COc1cc(NS(=O)(=O)c2cc(C(=O)N3CCCCCC3)cs2)cc(OC)c1,94%[activator],-16%
Cc1nn(-c2ncnc3nc[nH]c23)c2c1C(c1ccc(F)c(F)c1)CC(=O)N2 (stereo unspecified),1%,12%

# Screening data from PubChem.

# Some of the compounds tested; count on the stated rates, not on these rows.
